Menin MLL FP FL: displaces fluorescein MLL peptide from human menin; FP activity change, % at 61.4 µM; Fluorescence polarization, fluorescein-MLL peptide displacement from menin; 290,000 tested, under 10 active; inconclusive = falling polarisation curve, or a change in total fluorescence; inactive = total fluorescence flat and polarisation flat or rising; no compound was filed as active; the % refers to the polarisation; negative = inhibition;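 note: % of control where 0% means no effect; inhibitors lower the polarisation; unlabelled MLL peptide was the positive control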
TRPML1 ag: human mucolipin-1 channel agonism. TRPML1-expressing cells, Ca2+ dye fluorescence, FDSS; host cell line not named in the record; reference of the full effect not given here. Q9GZU1. AID 624414. activation, % (no concentration beside the values). 410,000 compounds, 0.12% hits; in the data active = activation above about 50%; inconclusive = about 30% to 50%; inactive = below about 30%; note: 0% is about no effect; the text of the record puts the active cut at 80%
Target sequence (Q9GZU1 whole entry, looked up): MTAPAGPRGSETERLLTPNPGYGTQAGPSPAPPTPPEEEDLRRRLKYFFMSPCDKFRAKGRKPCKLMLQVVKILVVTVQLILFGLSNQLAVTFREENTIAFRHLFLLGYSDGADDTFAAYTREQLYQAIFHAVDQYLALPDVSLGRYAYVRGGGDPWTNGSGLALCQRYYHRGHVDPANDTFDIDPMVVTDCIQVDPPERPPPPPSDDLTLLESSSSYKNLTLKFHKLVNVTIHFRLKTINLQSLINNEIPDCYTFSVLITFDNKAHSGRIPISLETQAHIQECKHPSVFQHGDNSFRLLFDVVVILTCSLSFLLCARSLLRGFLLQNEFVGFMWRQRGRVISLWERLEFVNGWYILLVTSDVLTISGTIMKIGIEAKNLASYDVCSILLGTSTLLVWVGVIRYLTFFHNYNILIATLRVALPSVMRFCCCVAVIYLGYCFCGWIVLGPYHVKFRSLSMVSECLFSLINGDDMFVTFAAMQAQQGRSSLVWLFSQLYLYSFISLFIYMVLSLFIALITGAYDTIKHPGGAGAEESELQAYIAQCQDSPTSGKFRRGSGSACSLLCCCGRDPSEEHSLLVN
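Agonist activity was taken from a 110 s kinetic Ca2+ dye read on the FDSS after pinning compounds onto TRPML1-DL cells. The cells were seeded at 1,500/well with Tet inducer, incubated about 16 h, then dye-loaded at room temperature.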
TRPML1 inh: inhibitors of human TRPML1 channel. 390,000 compounds, 0.02% hits. Q9GZU1. TRPML1-inducible cells, Ca2+ dye fluorescence, FDSS; stronger effect = lower value; inhibition of EC80 agonist-evoked calcium signal. activity change, negative = inhibition, % (no concentration beside the values); in the data active means activity change below about -50%; inconclusive means about -30% to -50%; inactive means above about -30%;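 note: stimulus is agonist 54-4 at its EC80 concentration; % is set by controls: 0 for no effect and ±100 for the full control effect; compound concentration not given in the record; the text of the record puts the active cut at -80%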
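TRPML1-DL cells, Tet-induced overnight (~16 h, 37 °C) at 1,500 cells/well, were loaded with Ca8 no-wash dye plus quencher for 45-90 min at room temperature. Compounds were pinned during FDSS kinetic reading; agonist 54-4 at EC80 (4 uM final) then added.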
gsp antag: antagonizes gsp, the McCune-Albright syndrome mutation | gsp-mutant cells, cAMP HTRF, 30 min; control for the full effect not named in the record | 340,000 compounds, 0.4% hits | AID 624288 | Potency, µM (highest dose often 76.9 µM), for the others: top-dose activity change, negative = inhibition, most hits filed as inhibitors; active = falling curve of any shape with a large fitted effect; inconclusive = falling curve, mostly with a smaller effect; inactive = flat or rising curve; cell line not stated here;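 note: intracellular cAMP measured with PDE inhibitor Ro 20-1724 present during compound exposure; potency is the fitted concentration of half-maximal effect; % is set by controls: 0 for no effect and ±100 for the full control effect; nearly all actives have a fitted effect of over 65% in size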
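HTRF cAMP measurement after 30 min RT detection following 30 min, 37C compound treatment alongside […] (added as 300 uM solution) in G418-selected cells seeded at 2000/well and grown 16–24 h.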
gsp ag: agonists of gsp mutant (McCune-Albright syndrome). 340,000 compounds, 0.13% hits. gsp mutant cells, cAMP HTRF, 30 min; control for the full effect not named in the record. Potency, µM (series often up to 76.9 µM), inactives show at the top dose activation (cAMP increase), most hits filed as activators. AID 624287; active = well fitted activation curve with a large enough effect; inconclusive = small, poorly fitted or top-dose-only effect, or another doubt; inactive = no such curve, though single readings can be large or run the other way; cell line not stated here;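 note: phosphodiesterase inhibitor Ro 20-1724 added with compounds to block cAMP breakdown; potency is the fitted concentration of half-maximal effect; nearly all actives have a fitted effect of over 60% in size; about a fifth of the inactives were tested at one dose only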
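Cells stably selected in G418 were plated at 2000/well, grown 16-24 hr, then given compounds in DMSO with the PDE inhibitor […] (300 uM solution added) for 30 min at 37C; cAMP was read by HTRF.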
ClpP mod: qHTS Assay for Activators of ClpP | ATP-dependent Clp protease proteolytic subunit (Bacillus subtilis (strain 168)), P80244 | purified B. subtilis ClpP, FRET peptide cleavage, 20 min | Potency, µM (highest dose often 57.5 µM), for inactives: at the highest dose activity change, negative = active | 340,000 compounds, 1.9% hits | AID 651965, 2013; active = well fitted falling curve with a large enough effect; inconclusive = small, poorly fitted or top-dose-only effect; inactive = no such curve, though single readings can be large or run the other way; note: potency is the fitted concentration of half-maximal effect; the source files actives as falling curves though it sought activators and does not explain the sign; nearly all actives have a fitted effect of over 65% in size; many hits overshoot -100%
Target sequence (P80244 whole entry, looked up): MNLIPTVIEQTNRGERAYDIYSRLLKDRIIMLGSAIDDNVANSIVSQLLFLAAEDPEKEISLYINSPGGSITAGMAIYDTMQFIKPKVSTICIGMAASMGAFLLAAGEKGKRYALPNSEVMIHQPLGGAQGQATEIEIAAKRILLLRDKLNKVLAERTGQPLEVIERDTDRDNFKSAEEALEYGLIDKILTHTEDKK
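Buffer: 100 mM Tris/HCl pH8, 100 mM KCl, 0.05% low protease BSA, 2.5% glycerol, 0.01% Tween-20. ClpP 10 microg/mL final; 20 min RT; delta FRET normalized to ADEP and DMSO controls.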
* = called active by the depositor; ? = inconclusive; · = not tested or not shown; & = joins results of further samples; ! = a repeat was not active; [ ] = another dose, or the depositor's remark. Compounds were not picked by outcome, and some 2.1% of all compounds hit somewhere here.

A first look, 3 compounds:
SMILES	Menin MLL FP FL	TRPML1 ag	TRPML1 inh	gsp antag	gsp ag	ClpP mod
CCOC(=O)N1CCN(C(=O)C2CCN(S(=O)(=O)c3ccc(OC)cc3)CC2)CC1	-7.0	0.2	16	-4%	-17%	0.2%
COCCN(C(=O)CCl)C(C(=O)NC1CCCCC1)c1ccccc1C (stereo not drawn)	-2.8	-1.4	3	4%	6%	-2.2%
CCOc1ccc(OCc2ccc(C(=O)N(CC)CC)cc2)cc1	-4.6	1.6	-13	-13%	-20%	1.3%

Main list, from the start:
SMILES	Menin MLL FP FL	TRPML1 ag	TRPML1 inh	gsp antag	gsp ag	ClpP mod
CCOC(=O)N1CCN(C(=O)C2CCN(S(=O)(=O)c3ccc(OC)cc3)CC2)CC1	-7.0	0.2	16	-4%	-17%	0.2%
COCCN(C(=O)CCl)C(C(=O)NC1CCCCC1)c1ccccc1C (stereo not drawn)	-2.8	-1.4	3	4%	6%	-2.2%
CCOc1ccc(OCc2ccc(C(=O)N(CC)CC)cc2)cc1	-4.6	1.6	-13	-13%	-20%	1.3%
CCCN1C(=S)c2ccccc2C1c1ccccc1 (stereo not drawn)	1.9	22	6	-5%	-4%	·
Cc1ccc(N2CC(C(=O)N3CCC(C(=O)Nc4nnc(C(C)C)s4)CC3)CC2=O)cc1 (stereo not drawn)	-1.8	-0.6	3	7%	1%[15.4 µM]	·
CN(Cc1cccs1)C(=O)Cc1c[nH]c2ccccc12	2.1	0.0	-10	6%	-38%[inhibitor]	-1.0%
COc1ccc(C2=Nn3c(nnc3-c3ccco3)SC2)cc1	0.3	2.6	-5	-11%	-3%	0.5%
Cc1cccc(N(C(=O)c2csnn2)C(C(=O)NC(C)(C)C)c2ccncc2)c1 (stereo not drawn)	-4.7	0.3	16	-3%	12%	-1.7%
[O-]c1n[n+](-c2ccc(Cl)cc2Cl)cc2ccccc12	-1.2	2.6	-9	-2%	13%	·
COc1cccc(C(=O)NCCCNC(=O)c2cccnc2)c1	-19	0.6	-12	1%	10%[15.4 µM]	·
CC(=O)Nc1cccc(-c2nnc(SCC(=O)c3ccc([N+](=O)[O-])cc3)o2)c1	·	3.7	14	·	·	0.3%
COc1ccc(NC(=O)c2cc(OC)c(OC)c(OC)c2Br)cc1OC	1.5	0.8	11	-4%	-2%	1.3%
Cc1ccc(C(=O)N/N=c2\oc3ccccc3cc2C(N)=O)cc1	1.7	·	·	-18%	-27%	-3.1%
CC(C(=O)Nc1ccc([N+](=O)[O-])cc1Cl)N1CCN(S(=O)(=O)c2cccs2)CC1 (stereo not drawn)	·	0.3	17	-14%	-8%	-2.1%
CN(C)c1ccc(C(CNC(=O)c2cccc(C(F)(F)F)c2)N2CCCC2)cc1 (stereo not drawn)	·	0.8	9	·	·	0.0%
O=C(CCC(=O)N1CCCc2ccccc21)N1CCN(S(=O)(=O)c2ccccc2)CC1	2.4	-0.3	10	-1%	-1%	-20%
Cc1c(C)c2c(OCC(=O)NCC(=O)NCC(=O)O)cc3c(c2oc1=O)CCC(C)(C)O3	-4.3	-0.3	-2	-4%	6%	·
C#CCOCCOCCOCCNc1nc(N2CCOCC2)nc(N2CCN(C(=O)[C@H](CCCCN)n3cc(CCCC)nn3)CC2)n1	·	1.1	-16	12%	·	0.0%
COc1cccc(OCCOCCOc2ccc(C)cc2[N+](=O)[O-])c1	·	2.4	-7	10%	2%	-0.4%
O=C(OCC(=O)N1CCCc2ccccc21)c1ccc(C(F)(F)F)cc1	·	-0.8	-8	6%	-9%[15.4 µM]	·
COc1cc(/C=C2\SC(=S)N(CC(=O)O)C2=O)ccc1OC(=O)c1ccco1	?	0.2	11	·	-3%[15.4 µM]	·
COc1cccc(CNc2nc3ccccc3c3nc(-c4cccc(C)c4)nn23)c1	·	-0.4	-12	·	·	-20%
CCCOC(=O)c1ccc(-c2ccc(C=O)o2)cc1	6.0	2.0	-4	-10%	10%	50%
CC(=O)Nc1ccc(S(=O)(=O)NC2CC2)cc1	-4.0	0.1	13	8%	-41%	·
Cc1cc2oc(C(=O)Nc3ccc(S(=O)(=O)N4CCCC(C)C4)cc3)cc(=O)c2cc1Cl (stereo not drawn)	-0.1	-0.5	1	2%	?	19%
Cc1cc(C)cc(C(=O)NCC(=O)OCC(=O)N(C)C2CCS(=O)(=O)C2)c1 (stereo not drawn)	12	0.4	31	10%	13%	-2.2%
CCCN1C(=O)C(O)(CC(=O)c2ccc(CC)cc2)c2ccccc21 (stereo not drawn)	·	0.7	16	·	·	0.4%
COC(=O)NCN1C(=O)C2C3C=CC(C3)C2C1=O (stereo not drawn)	1.8	-0.1	-18	-4%	0%	-0.2%
CC(C)(CCO)Nc1ncnc2onc(-c3ccc(F)cc3)c12	-2.7	1.2	-3	-4%	?	·
Cn1c(SCC(=O)NCCc2ccccc2)nnc1C1CCCCC1	0.9	-0.2	6	4%	?	·
CC(=O)Nc1cccc(/C(C)=N\NC(=O)c2ccc(Cn3nc([N+](=O)[O-])c(Cl)c3C)o2)c1	7.3	-0.7	-2	-3%	-2%[15.4 µM]	-1.5%
CCCN(C(=O)c1nc2nc(C)cc(C)n2n1)c1c(N)n(Cc2ccccc2)c(=O)[nH]c1=O	·	2.9	2	8%	-13%	-1.0%
CCOC(=O)/C(=C\c1ccccc1)C(=O)CCN1CCOCC1	·	-0.2	-9	7%	15%	1.7%
CCOc1ccccc1Nc1ccc(C(=O)O)cc1[N+](=O)[O-]	0.2	-0.6	10	?	4%	-1.0%
CCn1c(SCC(=O)NNC(=O)c2ccc(C)cc2)nnc1-c1ccco1	2.1	0.6	22	3%	-8%	·
O=C(CS(=O)CC(=O)NC12CC3CC(CC(C3)C1)C2)Nc1ccc(F)cc1 (stereo not drawn)	·	0.3	6	6%	-5%	·
N#Cc1cc2c(nc1SCc1ccc(Cl)cc1)CCCC2	-3.4	1.6	25	-4%	2%	-6.5%
O=C(CCl)Nc1cccn2ncnc12	1.8	0.2	31	3%	?	3.2%
Cc1cc2c(cc1C)-c1c(ssc1=Nc1ccc(S(N)(=O)=O)cc1)C(C)(C)N2	1.7	1.9	28	?	-45%[inhibitor]	1.0%
Cc1ccc(OCCCCN2CCC(C)CC2)cc1	-7.9	-0.4	2	13%	0%[15.4 µM]	0.6%
CCN1CCn2c3c(c4cc(C)ccc42)CCCC31 (stereo not drawn)	-1.1	0.0	-17	-7%	-2%	28µM*
CC1(C)Nc2ccccc2C(=O)N1c1ccc(Br)cc1	·	-0.5	40	-18%	23%[15.4 µM]	-1.1%
CC1(c2nnc(-c3ccc(Cl)cc3)o2)CC(c2ccc([N+](=O)[O-])cc2)=NO1 (stereo not drawn)	4.4	-0.7	7	8%	·	1.2%
CCCCC(=O)N1CC(=O)Nc2ccc(F)cc2C1c1ccc(F)cc1 (stereo not drawn)	0.4	-1.3&-0.4	-8&-4	8%	5%[15.4 µM]	20µM*!
COc1ccc(OCCNC(=O)c2cccc(Oc3ccc(C(F)(F)F)cc3[N+](=O)[O-])c2)cc1	-1.8	1.1	57	-11%	-10%	-7.3%
COc1ccc(/C=N/NC(=O)c2ccccc2[N+](=O)[O-])cc1CN1CCc2cc(OC)c(OC)cc2C1C (stereo not drawn)	8.3	-0.2	-21	-7%	7%[15.4 µM]	1.3%
Cc1ccc(Cl)cc1-n1c(SCC(=O)NCc2ccccc2)nc2n[nH]c(C)c2c1=N	·	1.3	9	·	·	4.6%
CCOC(=O)C1C2C=CC3(CN(Cc4ccco4)C(=O)C13)O2 (stereo not drawn)	-3.3	1.0	6	8%	-5%	1.9%
COc1ccc(NC(=O)CC2(CC(=O)O)CCCC2)cn1	-24	0.2	-8	1%	6%[15.4 µM]	·
C=C(C)C1CC=C(CN2CC(C)OC(C)C2)CC1 (stereo not drawn)	2.8	-0.7	2	-3%	-6%	-5.4%
O=C(/C=C/Nc1ccc(F)cc1F)c1ccc(Br)cc1	·	-0.3	1	18%	-1%[15.4 µM]	0.4%
O=C(CC12CC3CC(CC(C3)C1)C2)N/N=C/c1ccncc1	5.6	-0.1	13	-14%	14%	-1.4%
CC(=O)N(CCc1ccccc1)c1ccc2c(c1)C1CC2CCN1C(=O)OCc1ccccc1 (stereo not drawn)	·	1.0	68	·	-22%	0.2%
CCOC(=O)Cn1nc(-c2ccccc2)c(-c2ccccc2)nc1=O	-2.0	-1.1	-7	-2%	-22%[15.4 µM]	·
COc1ccc(N=C2NC(=O)/C(=C/c3ccc(O)c(OC)c3)S2)cc1	?	7.0	9	-5%	-21%	-8.3%
O=C(O)Cc1nn(Cc2ccc(Cl)cc2)c(=O)c2ccccc12	-1.3	0.4	-2	-6%	-12%[15.4 µM]	·
COC(=O)c1cnc(NNS(=O)(=O)c2ccc(C(F)(F)F)cc2)nc1C(F)(F)F	2.6	1.3	37	0%	-24%	-0.3%
CC(C)C[C@@]12C(=O)N(c3cccc(F)c3)C(=O)N1[C@H](c1ccc(Cl)cc1)[C@@H]1C(=O)N(C3CCCCC3)C(=O)[C@@H]12	·	-0.6	2	5%	·	-6.8%
Cc1ccc(S(=O)(=O)N(C)C[C@H]2OCc3cn(nn3)CCCC(=O)N([C@@H](C)CO)C[C@@H]2C)cc1	·	-0.3	-10	·	-5%	0.9%
Cc1ccc(OCc2nnc(SCC(=O)NCc3ccccc3)n2C)cc1	-0.4	1.3	10	4%	-22%	-0.3%
Going on with the list.
SMILES	Menin MLL FP FL	TRPML1 ag	TRPML1 inh	gsp antag	gsp ag	ClpP mod
CCCCn1c(SCC(=O)NC2CCCC2)nnc1-c1ccco1	0.9	0.3	-20	1%	7%[15.4 µM]	·
Cc1ccccc1C(OCCN(C)C)c1ccccc1 (stereo not drawn)	-2.0&-0.8&0.6&-5.3	1.0&0.2&-0.5	7&3	-5%&-5%	·	0.2%&0.5%&0.8%
COC(=O)C1=C(C)N(c2ccc(OC)cc2)C(=O)/C1=C\c1cccs1	1.0	-0.9	24	14%	-25%	-4.5%
O=C(CSc1nnc(SCc2ccccc2)s1)N/N=C/c1ccc(Cl)cc1Cl	3.3	0.5	16	5%	-8%	-1.9%
COc1cc2nc(SCC(=O)c3ccc(Br)cc3)n3nc(C)nc3c2cc1OC	2.6	0.2	42	15%	-62%[inhibitor]	-0.3%
CSCCC(NC(=O)c1ccccc1)C(=O)NCC(C)(C)N1CCOCC1 (stereo not drawn)	·	-1.7	4	9%	-15%	2.0%
CN(C)C(=O)N1CCC(C(=O)NCC2CCCO2)CC1 (stereo not drawn)	6.4	1.7	-10	4%	11%	0.7%
